Screening data: PubChem, National Center for Advancing Translational Sciences (NCATS)
ClpP mod: qHTS Assay for Activators of ClpP | Potency, µM (doses to about 57.5 µM), without a hit: top-dose activity change, negative = active | ATP-dependent Clp protease proteolytic subunit (Bacillus subtilis (strain 168)), P80244 | purified B. subtilis ClpP, FRET peptide cleavage, 20 min | actives 1.9% (n = 340,000) | AID 651965, 2013; active = well fitted falling curve with a large enough effect; inconclusive = small, poorly fitted or top-dose-only effect; inactive = no such curve, though single readings can be large or run the other way; also: potency is read from the fitted curve at half-maximal effect; the source files actives as falling curves though it sought activators and does not explain the sign; nearly all actives have a fitted effect of over 65% in size; many hits overshoot -100%
Target sequence (P80244 whole entry, looked up): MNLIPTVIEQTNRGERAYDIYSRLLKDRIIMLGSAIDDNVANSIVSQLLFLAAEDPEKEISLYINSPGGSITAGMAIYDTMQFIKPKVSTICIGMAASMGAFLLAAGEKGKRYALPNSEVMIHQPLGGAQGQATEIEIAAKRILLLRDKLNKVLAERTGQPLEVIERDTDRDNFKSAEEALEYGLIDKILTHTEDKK
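Purified B. subtilis ClpP, 10 microg/mL final in Tris/HCl pH8 with KCl, BSA, glycerol and Tween-20, cleaved an Abz/nitrotyrosine-quenched decapeptide. Fluorescence (ex 320, em 430) was read at 0 and 20 min at room temperature. Delta was normalized to 5.8 microM ADEP and DMSO/no-enzyme controls.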
D2 potentiator: Beta-Arrestin HTS for Positive Allosteric Modulators of the Human D2 Dopamine Receptor: Potentiators | D(2) dopamine receptor (Homo sapiens), P14416 | DiscoveRx D2 beta-arrestin cells, luminescence, 90 min; 100% = 57 uM dopamine signal | potentiation, % (no concentration beside the values) | actives 0.23% (n = 360,000) | AID 624464, 2012; active = potentiation of 50% or more; inconclusive = 30% to 50%; inactive = 30% or less;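 also: compound concentration not given in the record; tested on top of an EC20 dose of dopamine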
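PathHunter beta-arrestin assay in DiscoveRx D2 cells. Compounds were added with an EC20 of dopamine (50 nM final) for 90 min at 37 deg C. Luminescence was read 1 h after detection reagent, with 57 uM dopamine as the EC100 control.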
gsp antag: qHTS for Antagonists of gsp, the Etiologic Mutation Responsible for Fibrous Dysplasia/McCune-Albright Syndrome: qHTS | Potency, µM (titrated, usually from 76.9 µM), inactives show at the highest dose activity change, negative = inhibition, hits mostly inhibitors | gsp-mutant cells, cAMP HTRF, 30 min; control for the full effect not named in the record | actives 0.4% (n = 340,000); active = falling curve of any shape with a large fitted effect; inconclusive = falling curve, mostly with a smaller effect; inactive = flat or rising curve; cell line not stated here;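 also: intracellular cAMP measured with PDE inhibitor Ro 20-1724 present during compound exposure; potency is read from the fitted curve at half-maximal effect; % is scaled to controls: 0 for no effect and ±100 for the full control effect; nearly all actives have a fitted effect of over 65% in size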
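G418-selected cells were plated in DMEM/10% FBS for 16-24 h at 37C, then treated with compounds plus the PDE inhibitor […] (300 uM solution added) for 30 min at 37C. Intracellular cAMP was measured by HTRF after 30 min lysis at room temperature.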
Menin MLL FP FL: qHTS Assay for Inhibitors Targeting the Menin-MLL Interaction in MLL Related Leukemias: Competition With Fluorescein Labeled MLL-derived Peptide; AID 1766, 2009; Fluorescence polarization, fluorescein-MLL peptide displacement from menin; FP activity change, % at 61.4 µM; 290,000 tested, under 10 active; inconclusive = falling polarisation curve, or a change in total fluorescence; inactive = total fluorescence flat and polarisation flat or rising; no compound was filed as active; the % refers to the polarisation; negative = inhibition;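 also: % of control where 0% means no effect; inhibitors lower the polarisation; unlabelled MLL peptide was the positive control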
gsp ag: qHTS for Agonist of gsp, the Etiologic Mutation Responsible for Fibrous Dysplasia/McCune-Albright Syndrome: qHTS. gsp mutant cells, cAMP HTRF, 30 min; control for the full effect not named in the record. Potency, µM (series often up to 76.9 µM), for inactives: at the top dose activation (cAMP increase), most hits filed as activators. actives 0.13% (n = 340,000). AID 624287, 2012; active = well fitted activation curve with a large enough effect; inconclusive = small, poorly fitted or top-dose-only effect, or another doubt; inactive = no such curve, though single readings can be large or run the other way; cell line not stated here;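 also: phosphodiesterase inhibitor Ro 20-1724 added with compounds to block cAMP breakdown; potency is read from the fitted curve at half-maximal effect; nearly all actives have a fitted effect of over 60% in size; about a fifth of the inactives were tested at one dose only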
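Cells in DMEM/10% FBS with G418 were pretreated with compounds in DMSO plus […] (300 uM stock) for 30 min at 37C. cAMP was measured by HTRF (cAMP-d2 plus anti-cAMP antibody-K) after 30 min at room temperature.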
Sfp inh: qHTS Assay for Inhibitors of Bacillus subtilis Sfp phosphopantetheinyl transferase (PPTase); 4'-phosphopantetheinyl transferase ffp (Bacillus subtilis), Q9F4F7; Biochemical Sfp PPTase activity, qHTS; Potency, µM, inactives show max response, negative = inhibition, most hits filed as inhibitors; actives 3.5% (n = 310,000); AID 1490, 2009; active = well fitted inhibition curve with a large enough effect; inconclusive = small, poorly fitted or top-dose-only effect, or another doubt; inactive = no such curve, though single readings can be large or run the other way;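 also: the enzyme is Sfp with the accession as filed and its product quenches rhodamine fluorescence; potency is read from the fitted curve at half-maximal effect; 0% = enzyme reaction without inhibitor and -100% = no enzyme wells; top concentration of the series not given in the record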
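Step 1, compound plus 15 nM Sfp-PPTase, 15 min, room temperature. Step 2, add rhodamine-CoA (5 uM) and BHQ-2-YbbR (12.5 uM). Step 3, read 525/598 nm fluorescence at 0 and 30 min.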
TRPV1 PAM: HTS Assay for Compounds that Act as Potentiators of the Vanilloid Receptor 1; TRPV1-expressing cells, Fluo-8 calcium influx, capsaicin EC20 potentiation; host cell line not named in the record; control for the full effect not named in the record; potentiation, % at 8.33 µM; actives 0.02% (n = 320,000); active means potentiation above 80%; inconclusive means 30% to 80%; inactive means below 30%; also: 0% is about no effect
Target sequence (Q8NER1 whole entry, looked up): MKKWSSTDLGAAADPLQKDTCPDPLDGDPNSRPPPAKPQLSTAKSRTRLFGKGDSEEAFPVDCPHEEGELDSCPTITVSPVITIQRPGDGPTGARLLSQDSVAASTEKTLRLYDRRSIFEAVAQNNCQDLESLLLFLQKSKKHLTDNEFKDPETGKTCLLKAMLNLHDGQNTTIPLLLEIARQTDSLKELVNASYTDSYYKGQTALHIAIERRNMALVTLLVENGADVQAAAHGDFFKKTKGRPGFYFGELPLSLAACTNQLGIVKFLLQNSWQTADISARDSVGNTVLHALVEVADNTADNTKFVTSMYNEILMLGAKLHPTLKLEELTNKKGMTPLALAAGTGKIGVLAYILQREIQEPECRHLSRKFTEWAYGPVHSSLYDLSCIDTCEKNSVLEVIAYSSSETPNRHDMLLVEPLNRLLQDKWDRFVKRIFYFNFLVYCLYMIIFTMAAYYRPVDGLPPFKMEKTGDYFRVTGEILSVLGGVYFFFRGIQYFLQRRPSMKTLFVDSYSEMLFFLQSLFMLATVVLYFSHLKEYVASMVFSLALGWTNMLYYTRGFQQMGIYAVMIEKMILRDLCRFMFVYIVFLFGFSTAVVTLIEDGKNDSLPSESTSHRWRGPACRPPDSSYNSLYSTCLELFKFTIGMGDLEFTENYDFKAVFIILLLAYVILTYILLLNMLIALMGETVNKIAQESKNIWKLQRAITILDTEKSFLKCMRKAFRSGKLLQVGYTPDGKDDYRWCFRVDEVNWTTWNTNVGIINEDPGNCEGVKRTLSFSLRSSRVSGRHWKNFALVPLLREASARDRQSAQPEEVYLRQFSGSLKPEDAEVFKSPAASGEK
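Fluo-8 calcium influx in TRPV1-expressing cells, kinetic read (ex 480/em 520 nm). Compound added and read 3 min for agonist activity, followed by capsaicin at EC20 final and 2 min further read for enhancement.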
Active calls of the source: *; i = inactive; u = inconclusive; x = no result given; [ ] = remark or other dose.

The line under a structure holds: gsp antag, Sfp inh, TRPV1 PAM, gsp ag, ClpP mod, D2 potentiator, Menin MLL FP FL
Cc1ccc(C(=O)NCc2ccccn2)o1
 : 8%, 8%, 6, 0%, -0.5%, -3, 1.1
CCCc1cc(=O)oc2cc(OCC(=O)NCCCN3CCOCC3)ccc12
 : 11%, 0%, 0, 2%, x, -8, x
CC(C)Oc1ccc(/C=C/C(=O)NCC2COc3ccccc3O2)cc1 (stereo not given)
 : -13%, -13%, -13, -3%[15.4 µM], -7.6%, -5, -1.2
COc1ccc(CCN(C)C(=O)CCCN2C(=O)c3cccc4cccc(c34)C2=O)cc1OC
 : -3%, -2%, 3, -5%, -23%, 2, -4.4
COc1cccc(CNc2nc3ccc(NC(C)=O)cc3s2)c1
 : -2%, x, x, -26%, x, 0, x
O=C(O)c1cnc(-c2ccccc2)nc1C(F)(F)F
 : -5%, 20%, 3, -13%[15.4 µM], x, -6, -0.7
Oc1ccc(-c2nccc(-c3ccc(Br)cc3)n2)cc1
 : -3%, -8%, -6, -2%, -0.4%, -9, 4.6
Cc1nc2ccccc2c(=O)n1NC(=O)c1cncc(Br)c1
 : 3%, -8%, 16, 1%[15.4 µM], x, 2, 7.4
O=C(CN1C(=O)CCC1=O)Nc1ccc(Cc2ccc(NC(=O)CN3C(=O)CCC3=O)cc2)cc1
 : 4%, 4%, 12, 2%, 0.9%, -1, 1.9
CC1CCCCN1C(=O)CSc1nc(-c2ccccc2)cc(=O)[nH]1 (stereo not given)
 : -4%, 4%, 8, 17%, -6.1%, -8, 4.9
Cc1cccc(C)c1NC(=O)CSc1nnc(-c2cccnc2)o1
 : 5%, 18%, 0, 11%[15.4 µM], x, -4, 0.2
CC(C(=O)NN=C(c1ccccc1)c1ccccc1)N1CCOCC1 (stereo not given)
 : -8%, 4%, 2, -18%, 0.5%, -5, -0.6
CCN(CC)S(=O)(=O)c1ccc(S(=O)(=O)N2CCN(C(=O)c3ccco3)CC2)cc1
 : 11%, 16%, -1, -2%, 0.4%, -5, 1.5
Cn1c(SCc2ccccn2)nnc1-c1cnccn1
 : 10%, -1%, -2, -2%, -0.2%, -3, 4.0
CCOc1ccc(CC2S/C(=N/N=C/c3ccco3)NC2=O)cc1 (stereo not given)
 : -1%, 2%, -4, -5%, x, -4, -4.1
O=C(CCNS(=O)(=O)c1ccc(Cl)cc1)NCc1cccnc1
 : 10%, 19%, 0, 13%, 0.2%, 2, 5.1
CC1Sc2ccc(S(=O)(=O)CCC(=O)NCc3ccccc3)cc2NC1=O (stereo not given)
 : 2%, 5%, 2, -30%[inhibitor], -0.7%, -6, 2.3
CCOc1ccc(-n2c(C)cc(/C=N/N(C)C)c2C)cc1
 : -10%, 11%, -3, 7%, -0.9%, -14, 2.8
CC1(C)CC(NC(=O)C23CCC(C)(C2Br)C3(C)C)CC(C)(C)N1 (stereo not given)
 : -27%, 2%, -9, -2%[15.4 µM], 2.2%, -18, 1.0
CCC(=O)N1CCN(c2ccc(NC(=S)NC(=O)c3cccc([N+](=O)[O-])c3)cc2)CC1
 : u, -5%, -34, 12%, -3.2%, -6, -0.6
Cc1ccc(NC(=S)NCCc2ccc(S(N)(=O)=O)cc2)cc1C
 : -2%, 16%, 20, 3%, 1.0%, -3, 16
COc1cc(/C=C/c2cccc[n+]2C)ccc1OCC(=O)Nc1ccccc1
 : -7%, -12%, 8, 28%, x, -2, x
Nn1c(SCc2ccccc2)nc2ccccc21
 : 13%, 8%, -4, -2%[15.4 µM], x, -12, x
O=C(NCCCn1ccnc1)c1ccc(N2CCCCC2)c([N+](=O)[O-])c1
 : 3%, 5%, -8, -9%[15.4 µM], x, -16, 0.0
Cc1cc(C(=O)O)ccc1-n1c(C)cc(C=C2C(=O)c3ccccc3C2=O)c1C
 : -14%, -21%, 6, 6%[15.4 µM], x, -6, u
Cc1nnc(N2C(=O)c3oc4ccccc4c(=O)c3C2c2ccco2)s1 (stereo not given)
 : -18%, u, 6, -42%[inhibitor], 1.1%, -1, 3.6
O=C(C1CC1)N1CCN=C1SCc1ccc(F)cc1
 : 6%, -3%, 0, 8%, -0.3%, -4, 0.4
O=C(Cn1nnc(-c2ccccc2)n1)NNC(=O)c1cccc([N+](=O)[O-])c1
 : -6%, 17%, 16, 4%, x, -4, -0.1
Cc1nnc(NC(=O)Cn2c(=O)sc3ccccc32)s1
 : -15%, -13%, -3, 2%, 1.9%, 0, -1.6
O=C(N/N=C/c1ccccn1)c1[nH]c2ccc([N+](=O)[O-])cc2c1-c1ccccc1
 : -12%, 12%, -2, -3%[15.4 µM], 3.4%, 3, -5.3
Cn1c(SCC(N)=O)nnc1C1CCN(S(=O)(=O)c2ccccc2C(F)(F)F)CC1
 : -2%, 8%, -3, -52%[inhibitor], -0.7%, -4, 4.0
COc1cccc(C=NNC(=O)CCCC(=O)NN=Cc2cccc(OC)c2)c1
 : -5%, x, x, 3%, -26%, -4, x
CCOC(=O)c1sc(NC(=O)CSc2nnc(C)s2)c(C(=O)OCC)c1C
 : -4%, -16%, -1, -28%, 2.6%, -5, 4.7
CCOC(=O)N1CCC(NC(=O)CCc2nc(-c3ccccc3F)no2)CC1
 : 3%, -7%, 5, 6%, 1.9%, -4, 2.3
CN(CC(=O)Nc1cccc(F)c1)C(=O)CCc1nc2cc(S(=O)(=O)N3CCOCC3)ccc2n1C
 : 3%, x, 19, 3%[15.4 µM], 0.2%, -11, x
O=C1/C(=C\c2ccccc2Cl)SC(=S)N1CCC(=O)N1CCCc2ccccc21
 : 11%, 20%, 2, -7%, 0.5%, -15, -0.8
Cc1cc([N+](=O)[O-])ccc1NC(=O)CSc1nncn1-c1cccnc1
 : -1%, 1%, -5, 8%, x, 3, -6.9
O=[N+]([O-])c1cc(Cl)ccc1Nc1ccccc1
 : -6%, 2%, 4, -3%, 0.0%, -2, -2.6
Cc1ccccc1C(=O)NNC(=O)C1CCCN(c2ncccn2)C1 (stereo not given)
 : 2%, 11%, x, -39%[inhibitor], -1.3%, -10, 1.8
Cc1c(C=O)c2ccccc2n1CC(=O)N1CCc2ccccc2C1
 : -28%, 4%, -4, -11%, 0.4%, -4, 3.3
CC(C)CCNC(=O)C(c1ccco1)N(Cc1ccccc1)C(=O)c1snc(C(N)=O)c1N (stereo not given)
 : -10%, 1%, 3, 27%, -23%, -7, 0.0
CC(C)=CCC/C(C)=C/CNC(=O)C[C@H]1C[C@H](C(=O)N(C(C)C)C(C)C)[C@@]2(C)c3[nH]c4ccc(Cl)cc4c3CCN2C1=O
 : 2%, x, x, x, 2.5%, -1, x
CN(C(=O)CSc1nnc(Nc2ccccc2F)s1)C1CCS(=O)(=O)C1 (stereo not given)
 : 3%, x, x, 1%[15.4 µM], -0.4%, -6, x
C/C(=N\NC(=O)c1ccc2ccccc2c1)c1cccnc1
 : 0%, 15%, 17, -23%, -2.3%, -15, x
CCOc1cc(N2CCOCC2)c(OCC)cc1NC(=O)COC(=O)c1cccc2ccccc12
 : -1%, 16%, 6, 11%, 5.8%, -3, 2.0
Cc1ccc(C(=O)NCCCc2ccccc2)c(Cl)c1
 : -5%, 14%, 13, u, x, -7, 1.2
Cc1[nH]c2ccccc2c1C(=O)C(C)Sc1nnc(C2CC2)o1 (stereo not given)
 : -3%, x, 6, 28%, 0.2%, -1, x
CCS(=O)(=O)N1CCC(N2CCC(C)CC2)CC1
 : 6%, -28%, u, -2%, -1.0%, -21, -2.3
Nc1ccc2c(c1)C(=O)c1cc([N+](=O)[O-])ccc1-2
 : -8%, x, x, -14%[15.4 µM], -0.2%, -16, x
COc1ccc(-c2nc(CS(=O)(=O)CC(=O)NCCc3ccccc3)c(C)o2)cc1
 : -10%, 9%, 12, 7%, u, -2, x
Cc1ccc2c(Cl)cc(Cl)c(OCC(=O)N(C(C)C)C(C)C)c2n1
 : x, 12%, -18, 2%[15.4 µM], x, -15, -2.6
Nc1nc(-c2cc(O)ccc2[N+](=O)[O-])cc(-c2ccccc2)c1[N+](=O)[O-]
 : -21%, u, 21, u, x, 0, u
Cc1ccc(C(=O)N2CC(C)CC(C)C2)cc1NC1=NC2CS(=O)(=O)CC2S1 (stereo not given)
 : 6%, 10%, 9, u, 0.7%, -3, 0.4
Cc1cccc(OCCNc2cc(N3CCN(C)CC3)ccc2[N+](=O)[O-])c1
 : 12%, -10%, -8, -10%, 0.9%, -37, 2.5
O=C(CCC(=O)N1CCOc2ccccc21)Nc1ccc(F)cc1F
 : 8%, 3%, 11, -2%, -0.9%, -14, 3.8
CCCN1CCN(C(=O)Cn2cccc2C(=O)c2ccccc2)CC1
 : 4%, 6%, -25, 4%, 1.5%, -4, -0.7
NC(=O)c1ccccc1NC(=O)/C=C/c1c(Cl)cccc1Cl
 : -19%, 2%, -9, u, -1.9%, -23, -1.0
COC(=O)C(Cc1ccc(O)cc1)NC(=O)c1ccccc1OC (stereo not given)
 : -43%, 10%, -2, -13%, 0.2%, -3, -0.4
COc1ccc(CCNC(=O)c2c(-c3ccccc3Cl)noc2C)cc1
 : -10%, 7%, -19, 2%, 1.0%, 3, 2.2
c1ccc(CSc2nnc3ccc(-c4ccco4)nn23)nc1
 : 9%, 12%, 0, u, -5.3%, -4, -6.8
COc1cc2c(cc1OC)C1O[C@](c3ccsc3)(C2)Oc2c1c(=O)oc1ccc(F)cc21
 : x, -16%, i, x, x, x, u
Cc1ccc(NC(=O)CN(C)C(C)C(=O)Nc2ccc(S(=O)(=O)N3CCCC3)cc2)cc1 (stereo not given)
 : 6%, x, u, -6%, 4.2%, 3, x
O=[N+]1C2=C(CCCC2)N([O-])C12CCCC2
 : -2%, -12%, 29, -7%, -0.8%, 11, 1.3
